High-throughput results deposited in PubChem BioAssay by several laboratories.
UCH37 DUB inh = inhibitors of human UCH37 deubiquitinase, primary screen, biochemical, Ub-AMC cleavage, fluorescence. Ubiquitin carboxyl-terminal hydrolase isozyme L5 (Homo sapiens), Q9Y5K5. 330,000 tested, 0.33% active. inhibition, % (no concentration beside the values). purified proteasome/UCH37;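 active = mean of two replicates above 20%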;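 note: 0% = compound-free wells with enzyme and 100% = wells lacking proteasome; stock transfer was 100 nL into about 20 µL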
Target sequence (Q9Y5K5 whole entry, looked up): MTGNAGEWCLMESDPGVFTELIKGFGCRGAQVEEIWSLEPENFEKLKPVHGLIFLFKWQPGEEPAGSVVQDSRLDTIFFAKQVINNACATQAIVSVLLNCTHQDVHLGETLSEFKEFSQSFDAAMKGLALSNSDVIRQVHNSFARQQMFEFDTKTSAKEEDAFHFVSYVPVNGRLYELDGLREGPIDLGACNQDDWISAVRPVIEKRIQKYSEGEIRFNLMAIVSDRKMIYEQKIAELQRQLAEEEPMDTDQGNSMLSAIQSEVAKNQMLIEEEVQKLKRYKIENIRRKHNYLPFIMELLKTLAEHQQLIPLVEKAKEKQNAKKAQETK
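system = Proteasome-associated human UCH37 deubiquitinase | amount = 0.15 nM proteasome as dispensed | medium = pH 7.4 Tris-HCl (50 mM) with ovalbumin, ATP-MgCl2, DTT | incubation = 30 min preincubation with enzyme, 25 min cleavage at room temperature | detection = AMC fluorescence 355/460 nm | read-out basis = percent inhibition | controls = no-proteasome and no-compound wells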
HNF4A DNA FP = change in binding of human HNF4A to DNA, primary screen, biochemical, fluorescence polarization, FITC-DNA; Hepatocyte nuclear factor 4-alpha (Homo sapiens), P41235; 1 h; activity change, % at 10 µM; 360,000 tested, 0.3% active; AID 1224865, 2016; in the data active = activity change above about 30%, passing the limit was not always enough;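 note: controls were the assay level and a saturating level of protein; the project sought stronger binding though the title names inhibitors; some compounds called inactive have numbers as strong as hits; positive values seem to mean higher polarization but the record does not say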
E coli growth = E. coli growth inhibition, primary screen, OD600 | AID 1053175, 2014 | 330,000 tested, 0.21% active | Escherichia coli growth, 23 h; active compounds read low | OD600 absorbance (no concentration beside the values);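 active = OD600 absorbance below the run mean of sample wells minus 3.6 SD, in any replicate, cut at about 0.56 in these data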;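 note: stock transfer was 300 nL into about 60 µL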
ALR inh = inhibitors of human ALR sulfhydryl oxidase, primary screen, biochemical, H2O2 detection, HRP-luminol luminescence, single point; FAD-linked sulfhydryl oxidase ALR (Homo sapiens), P55789; purified ALR, DTT oxidation; inhibition, % (concentration not given with the values); 290,000 tested, 3.8% active; AID 485317, 2010;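 active = mean and each replicate at 75% or more; inconclusive = only one of the two met; inactive = neither met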;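 note: stock transfer was 7.5 nL into about 7.5 µL; 0% = neutral wells and 100% = wells with inactivated enzyme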
Beta2AR agonist = beta2AR agonists driving receptor internalization, primary screen, cell-based, FAP fluorogen, flow cytometry; Beta-2 adrenergic receptor (Homo sapiens), P07550; Am2.2-beta2AR cells; reference of the scale not given here; response, % (test concentration not listed); 340,000 tested, 0.43% active; AID 504454, 2011;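 active = response above a set limit, near 3 SD of response in nonfluorescent compounds, cut at about 42% in these data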;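 note: stock transfer was 100 nL into about 11 µL; a reference agonist was the positive control; negative values mostly stem from fluorescent compounds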
Target sequence (P07550 whole entry, looked up): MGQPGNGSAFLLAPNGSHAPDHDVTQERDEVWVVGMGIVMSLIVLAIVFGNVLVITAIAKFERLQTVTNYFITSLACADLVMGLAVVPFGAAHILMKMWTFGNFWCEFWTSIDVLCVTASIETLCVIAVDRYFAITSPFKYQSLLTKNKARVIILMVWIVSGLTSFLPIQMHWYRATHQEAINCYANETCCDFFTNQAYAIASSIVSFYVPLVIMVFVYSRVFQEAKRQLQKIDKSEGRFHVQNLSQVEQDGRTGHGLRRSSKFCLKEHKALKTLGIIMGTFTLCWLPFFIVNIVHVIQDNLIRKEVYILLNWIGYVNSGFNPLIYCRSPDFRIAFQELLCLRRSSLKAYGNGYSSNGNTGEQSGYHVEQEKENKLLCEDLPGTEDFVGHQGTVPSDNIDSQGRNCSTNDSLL
FGF22 binding = binders of human FGF22 protein, primary screen, FGF22 synaptogenesis inhibitor project, biophysical, thermal shift, single point. Fibroblast growth factor 22 (Homo sapiens), Q9HCT0. recombinant FGF22 thermal shift, SYPRO orange fluorescence; percent of sucrose octasulfate shift, DMSO zero. calls only at 9.99 µM. 340,000 tested, 1.5% active. AID 651658, 2012;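 active = melting point raised past a set limit in the mean and every replicate; inconclusive = no clear call; three in four hits are not shown here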
Target sequence (Q9HCT0 whole entry, looked up): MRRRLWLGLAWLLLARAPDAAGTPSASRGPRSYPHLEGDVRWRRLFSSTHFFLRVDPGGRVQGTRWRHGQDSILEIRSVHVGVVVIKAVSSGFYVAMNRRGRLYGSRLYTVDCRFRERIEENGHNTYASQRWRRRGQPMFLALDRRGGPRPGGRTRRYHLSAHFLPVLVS
rRNA inh HTS = reduced GFP signal of wild-type E. coli, primary screen, bacterial rRNA inhibitor project, GFP/RFP fluorescence, OD600, single point; GFP signal change (wild-type ribosome), % (no concentration beside the values); E. coli WT GFP vs humanized-ribosome RFP mutants, 24 h; active compounds read low; DMSO median 0, no signal -100; 350,000 tested, 1.6% active;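 active = significant combined selectivity score with lowered wild-type GFP, culture density cut under 30%, mutant RFP and density less affected; inactive = any of these conditions unmet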; note: one replicate is shown; some compounds called inactive have numbers as strong as hits
rRNA inh HTS OD600 = also measured in rRNA inh HTS; calls as there; OD600 change, %; measured here: OD600 growth;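 optical density of the mix in the first replicate; 0 = DMSO median and -100 = no signal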
rRNA inh HTS RFP = second read-out of rRNA inh HTS, no call of its own (marks repeat the call); RFP signal change, %; measured here: RFP humanized mutant strains;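 first replicate; 0 = DMSO median and -100 = no signal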
Starred values were filed as active, the others as inactive; & = joins results of further samples. Some of the compounds tested, so the mix of outcomes need not match the whole.

For OC(CNCc1ccccn1)c1ccccc1 (stereo not drawn) the results were UCH37 DUB inh -2.2, HNF4A DNA FP 1.4, E coli growth 0.69, Beta2AR agonist -6, FGF22 binding inactive, rRNA inh HTS 19, rRNA inh HTS OD600 11 and rRNA inh HTS RFP -5.9.
For COc1cccc(CN(C)CC(=O)NCc2ccccc2Cl)c1OC the results were UCH37 DUB inh -0.2, HNF4A DNA FP 1.3, E coli growth 0.69, Beta2AR agonist 31, FGF22 binding inactive, rRNA inh HTS -25*, rRNA inh HTS OD600 -20* and rRNA inh HTS RFP 1.0*.
Screening Cc1ccc(N(C(=O)c2ccccn2)C2(C(=O)NC3CCCC3)CCCCC2)cc1 returned UCH37 DUB inh 0.2, HNF4A DNA FP 1.1, E coli growth 0.72, ALR inh -4 and Beta2AR agonist 5.
Screening C[C@H](O)[C@@H]1C(=O)N2CCc3c([nH]c4ccccc34)[C@@H]2C[C@@H]1N(C)C(=O)Nc1ccc(F)cc1 returned HNF4A DNA FP -1.6, FGF22 binding inactive, rRNA inh HTS -8, rRNA inh HTS OD600 -12 and rRNA inh HTS RFP -0.8.
O=C(NCc1ccccn1)C1COc2ccccc2O1 (stereo not drawn) was read as UCH37 DUB inh 0.7, HNF4A DNA FP -3.3, E coli growth 0.68, ALR inh -2 and Beta2AR agonist -5.
Screening Cc1ccc(C2=Nc3ccccc3N=C(C(Cl)Cl)C2)cc1 returned UCH37 DUB inh 3.1, HNF4A DNA FP 2.3, E coli growth 0.69, ALR inh inconclusive, Beta2AR agonist 0, FGF22 binding inactive, rRNA inh HTS -22, rRNA inh HTS OD600 -22 and rRNA inh HTS RFP -4.1.
`NC(Cc1ccc(F)cc1)c1csc(Nc2cc(Oc3ccccc3)ncn2)n1` (stereo not drawn) gave HNF4A DNA FP 3.4, FGF22 binding inactive, rRNA inh HTS -35, rRNA inh HTS OD600 -81 and rRNA inh HTS RFP -24.
For NC(=O)/C(=C/c1ccco1)NC(=O)c1ccc(Br)o1 the results were UCH37 DUB inh 3.0, HNF4A DNA FP -1.9, E coli growth 0.72, ALR inh -14, Beta2AR agonist 1, rRNA inh HTS 72, rRNA inh HTS OD600 10 and rRNA inh HTS RFP 0.2.
`Cc1ccc(C(C(=O)NC2CCCCC2)N(C(=O)c2csnn2)C2CCCC2)o1` (stereo not drawn) gave UCH37 DUB inh 3.4, HNF4A DNA FP 4.4, E coli growth 0.72, ALR inh 4, Beta2AR agonist 11, rRNA inh HTS -1, rRNA inh HTS OD600 4 and rRNA inh HTS RFP 1.9.
`CCN(CC)C(=O)c1ncn2c1C(=O)N(C)CC2` gave HNF4A DNA FP 23, FGF22 binding inactive, rRNA inh HTS 2, rRNA inh HTS OD600 7 and rRNA inh HTS RFP -4.0.
Cc1nn(C(C)C(=O)NCCc2ccccc2)c(=O)c2cc3occc3n12 (stereo not drawn) was read as UCH37 DUB inh -3.8, HNF4A DNA FP 2.2, E coli growth 0.67, ALR inh -1, Beta2AR agonist -4, FGF22 binding inactive, rRNA inh HTS 2, rRNA inh HTS OD600 5 and rRNA inh HTS RFP -0.4.
For Cc1nn(C)cc1C(C(=O)NC1CCCCC1)N(C(=O)c1cnccn1)c1ccc(Oc2ccccc2)cc1 (stereo not drawn) the results were UCH37 DUB inh 3.5, HNF4A DNA FP -5.7, E coli growth 0.69, ALR inh -29, Beta2AR agonist -11 and FGF22 binding inactive.
Screening O=C(CSc1nc2ccccc2c(=O)n1CC1CCCCC1)N1CCOCC1 returned UCH37 DUB inh 3.6, HNF4A DNA FP -0.9, E coli growth 0.8, ALR inh -1 and Beta2AR agonist 0.
Screening COCCCNCCCOc1ccc(Cl)cc1C(C)(C)C returned UCH37 DUB inh 0.6, HNF4A DNA FP 0.8, E coli growth 0.66, Beta2AR agonist 27, FGF22 binding inactive, rRNA inh HTS -55, rRNA inh HTS OD600 -78 and rRNA inh HTS RFP -21.
`C=CC(=O)Nc1ccc(N(C)c2ccnc(Nc3ccc(N4CCN(C)CC4)cc3)n2)cc1` gave UCH37 DUB inh -0.3, HNF4A DNA FP 13, E coli growth 0.71, Beta2AR agonist 4, FGF22 binding inactive, rRNA inh HTS 1, rRNA inh HTS OD600 19 and rRNA inh HTS RFP 4.9.

The list goes on; it opens with the 2 that closed the last part.
Screening COCCCNCCCOc1ccc(Cl)cc1C(C)(C)C returned UCH37 DUB inh 0.6, HNF4A DNA FP 0.8, E coli growth 0.66, Beta2AR agonist 27, FGF22 binding inactive, rRNA inh HTS -55, rRNA inh HTS OD600 -78 and rRNA inh HTS RFP -21.
`C=CC(=O)Nc1ccc(N(C)c2ccnc(Nc3ccc(N4CCN(C)CC4)cc3)n2)cc1` gave UCH37 DUB inh -0.3, HNF4A DNA FP 13, E coli growth 0.71, Beta2AR agonist 4, FGF22 binding inactive, rRNA inh HTS 1, rRNA inh HTS OD600 19 and rRNA inh HTS RFP 4.9.
`Cc1ccc(NC(=O)COC(=O)c2ccccc2Nc2ccccc2)cc1` gave UCH37 DUB inh -39, HNF4A DNA FP -0.6, E coli growth 0.71, ALR inh -25, Beta2AR agonist -8, FGF22 binding inactive, rRNA inh HTS 9, rRNA inh HTS OD600 -4 and rRNA inh HTS RFP -0.8.
Screening O=C(Nc1ccc2c(c1)OCCO2)C1CCCN1S(=O)(=O)c1ccc(Cl)cc1 (stereo not drawn) returned UCH37 DUB inh 0.6, HNF4A DNA FP -0.8, E coli growth 0.65 and Beta2AR agonist 8.
N/C(=N\OC(=O)N1CCOCC1)c1ccc(Br)cc1 was read as UCH37 DUB inh -1.6, HNF4A DNA FP 1.2, E coli growth 0.67, ALR inh 2, Beta2AR agonist 0, FGF22 binding inactive, rRNA inh HTS 2, rRNA inh HTS OD600 8 and rRNA inh HTS RFP -1.9.
`CCOc1ccc(CNC(=S)Nc2ccccc2)cc1Cl` gave UCH37 DUB inh 1.5, HNF4A DNA FP -2.3, E coli growth 0.67, ALR inh 2, Beta2AR agonist 5, FGF22 binding inactive, rRNA inh HTS -7, rRNA inh HTS OD600 -4 and rRNA inh HTS RFP -6.5.
For CC(C)Cn1c(N)c(C(=O)COC(=O)c2cc(C(F)(F)F)nc3c(C(F)(F)F)cccc23)c(=O)n(C)c1=O the results were UCH37 DUB inh 3.5, ALR inh 1, FGF22 binding inactive, rRNA inh HTS 9, rRNA inh HTS OD600 6 and rRNA inh HTS RFP -6.4.
For CCCc1nc2ccccc2[nH]1 the results were UCH37 DUB inh 2.4, HNF4A DNA FP 4.6, E coli growth 0.67, ALR inh -10 and Beta2AR agonist 3.
CCNC(=O)N(C)C[C@H]1N[C@@](CC)(C(=O)OC)[C@H]2C(=O)N(Cc3ccccc3)C(=O)[C@@H]12 was read as UCH37 DUB inh 3.0, HNF4A DNA FP 1.8, E coli growth 0.69, Beta2AR agonist 0, FGF22 binding inactive, rRNA inh HTS 3, rRNA inh HTS OD600 4 and rRNA inh HTS RFP -0.8.
`CC(C)CN(C(=O)CN1CCN(c2ccc(O)cc2)CC1)c1c(N)n(CC(C)C)c(=O)[nH]c1=O` gave UCH37 DUB inh 2.2, HNF4A DNA FP -0.9, E coli growth 0.71, ALR inh 99*, Beta2AR agonist 6, FGF22 binding inactive, rRNA inh HTS 9, rRNA inh HTS OD600 9 and rRNA inh HTS RFP -3.2.
Cc1cc(C(=O)NNC(=S)NC2CCCCC2)cs1 was read as UCH37 DUB inh 3.9, HNF4A DNA FP 3.6, E coli growth 0.69, ALR inh 14, Beta2AR agonist 0, FGF22 binding inactive, rRNA inh HTS -2, rRNA inh HTS OD600 -2 and rRNA inh HTS RFP 0.4.
`CC(C(=O)O)n1nc2ccccc2n1` (stereo not drawn) gave UCH37 DUB inh 1.6, HNF4A DNA FP -2.0, E coli growth 0.68, ALR inh -9 and Beta2AR agonist 0.
CC(C)(C)N(Cc1ccccc1)C(=O)COC(=O)Cn1[nH]c(=O)c2ccccc2c1=O was read as HNF4A DNA FP 1.6, FGF22 binding inactive, rRNA inh HTS -4, rRNA inh HTS OD600 -7 and rRNA inh HTS RFP -4.6.
COCOc1ccc(C=O)c(OCOC)c1 was read as UCH37 DUB inh 4.3, HNF4A DNA FP 3.3, E coli growth 0.74, ALR inh -25, Beta2AR agonist -13 and FGF22 binding inactive.
Screening C[C@@H]1CN([C@@H](C)CO)S(=O)(=O)c2ccc(Br)cc2O[C@H]1CN(C)Cc1ccncc1 returned HNF4A DNA FP 1.2, FGF22 binding inactive, rRNA inh HTS -7&-9, rRNA inh HTS OD600 -29&-35 and rRNA inh HTS RFP -3.4&-5.7.
COc1ccc(NC(=O)COC(=O)c2ccc(-n3nc(C)cc3C)cc2)cc1OC was read as UCH37 DUB inh 1.8, HNF4A DNA FP 3.0, E coli growth 0.71, ALR inh 2, Beta2AR agonist 2, FGF22 binding inactive, rRNA inh HTS 1, rRNA inh HTS OD600 19 and rRNA inh HTS RFP -1.4.
For COc1ccc(N(C)S(=O)(=O)c2cccc(C(=O)Nc3ccc(OC)nc3)c2)cc1 the results were UCH37 DUB inh 2.3, E coli growth 0.67, ALR inh -7, FGF22 binding inactive, rRNA inh HTS -28, rRNA inh HTS OD600 -52 and rRNA inh HTS RFP 6.3.
CCOC(=O)c1nn(-c2ccc(Cl)cc2)c2nnc(Cc3ccc(C)cc3)c(=O)n12 was read as UCH37 DUB inh 0.3, HNF4A DNA FP -0.7, E coli growth 0.7 and Beta2AR agonist 0.
`COc1ccc(C(O)P(=O)(OC(C)C)OC(C)C)c(OC)c1` (stereo not drawn) gave UCH37 DUB inh 1.5, HNF4A DNA FP 3.5, E coli growth 0.71, ALR inh 2, Beta2AR agonist 1, FGF22 binding inactive, rRNA inh HTS 5, rRNA inh HTS OD600 -5 and rRNA inh HTS RFP -1.1.
`COCCCNC(=O)C1CC(=O)N(Cc2ccc(OC)cc2)C1` (stereo not drawn) gave UCH37 DUB inh 0.0, HNF4A DNA FP -4.0, E coli growth 0.7, ALR inh -8 and Beta2AR agonist -4.
For O=C(CSc1nnc(Cc2cc(=O)[nH]c(=O)[nH]2)n1-c1ccc(F)cc1)N1CCCCC1 the results were UCH37 DUB inh 5.6, HNF4A DNA FP -1.2, E coli growth 0.73, Beta2AR agonist 0, FGF22 binding inactive, rRNA inh HTS 20, rRNA inh HTS OD600 14 and rRNA inh HTS RFP 0.4.
COc1ccccc1OCCNC(=O)c1cccc(S(=O)(=O)N2CCN(Cc3ccccc3)CC2)c1 was read as UCH37 DUB inh 3.2, HNF4A DNA FP 7.6, E coli growth 0.67, ALR inh -1, Beta2AR agonist 7, FGF22 binding inactive, rRNA inh HTS -2, rRNA inh HTS OD600 -17 and rRNA inh HTS RFP 4.6.
For CC1CCC2(CC1)NC(=O)c1ccccc1O2 (stereo not drawn) the results were UCH37 DUB inh 0.5, HNF4A DNA FP -1.6, E coli growth 0.73, ALR inh -3 and Beta2AR agonist 2.
Screening C/C(=N\S(=O)(=O)c1ccc(C)cc1)N1CCN(S(=O)(=O)c2ccccc2)C1 returned HNF4A DNA FP -4.7, ALR inh -1 and Beta2AR agonist 0.
